Bioassay records (PubChem BioAssay)
Tb PYK inh: inhibitors of Trypanosoma brucei pyruvate kinase; Q57TT1; TbPYK enzyme, Kinase-Glo Plus ATP luminescence, 45 min; Potency, µM (series often up to 76.8 µM), without a hit: at the top dose activity, negative = inhibition, actives largely listed as inhibitors; 410,000 tested, 0.12% active; AID 624173; note: nearly all actives have a fitted effect of over 50% in size
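Luminescence from Kinase-Glo Plus, added after a 45-minute room-temperature reaction, served as the end-point read-out. The enzyme and substrate were preincubated with compound before ADP (130 uM final) initiated turnover. Concentration-effect curves came from normalized qHTS data.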
LmPK inhibitor: blocks Leishmania mexicana pyruvate kinase activity; Potency, µM (highest dose often 57.5 µM), inactives show at the top dose activity change, negative = inhibition, actives largely listed as inhibitors; AID 1721; 290,000 tested, 0.37% active; purified LmPK, Kinase-Glo ATP luminescence, 1 h
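0.1 nM LmPK, 0.5 mM PEP, 0.1 mM ADP; 50 mM imidazole pH 7.2, 7 mM MgCl2, 50 mM KCl; 1 h RT. Kinase-Glo luminescence readout, normalized to no-enzyme (full inhibition) and uninhibited wells.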
The depositor's hits bear a star; nt = no result given; & = joins results of further samples. Calls come from the whole dose curve; as a rule, active = well fitted curve in the direction sought with a large enough effect; inconclusive = small, poorly fitted or top-dose-only effect, or another doubt; inactive = no such curve, though single readings can be large; an effect the other way counts as inactive or inconclusive. % is set by controls: 0 for no effect and ±100 for the full control effect; potency is the fitted concentration of half-maximal effect. Some of the compounds tested; most or all hits stand in other tables.

Structure,Tb PYK inh,LmPK inhibitor
CCNC(=O)C1CC(=O)N(CC)C(=Nc2cc(Cl)c(O)c(Cl)c2)S1 (stereo not drawn),-14.3%,-8.5%
COc1cc(Cc2cnc(N)nc2N)cc(OC)c1OC,0.1%&0.3%&3.7%,-4.4%&-3.4%
COc1ccc(/C(N)=N/OC(=O)CSc2ccccc2)cc1,6.1%,-2.7%
CCN(CC)CCOc1ccc(/C(=C(\Cl)c2ccccc2)c2ccccc2)cc1,-0.9%,nt
CCCCc1oc2ccccc2c1C(=O)c1cc(I)c(OCCN(CC)CC)c(I)c1,2.0%&0.0%&0.3%,-0.2%
COC(=O)Nc1sc(C)nc1-c1ccccc1,-12.7%,2.4%
CN[C@@H]1C[C@@H](c2ccc(Cl)c(Cl)c2)c2ccccc21,1.1%,5.1%
O=C(O)Cn1nc(C(F)(F)F)c2c1CCCCC2,5.7%,-1.8%
Nc1c2c(nc3ccccc13)CCCC2,-3.1%&-0.1%&2.2%,-0.7%
Cc1ccc2c(CC(=O)N3CCN(S(=O)(=O)c4ccc5c(c4)OCCO5)CC3)coc2c1,2.2%,4.6%
CCNc1c2c3c(cccc3n(C)c1=O)C(=O)c1ccccc1-2,-10.8%,-4.2%
Cc1nc2ccccc2n1S(=O)(=O)c1ccc(F)cc1,3.2%,0.8%
O=C(O)c1cccnc1,1.4%&-5.9%,6.3%
O=C(CCCN1CCC(O)(c2ccc(Cl)cc2)CC1)c1ccc(F)cc1,-3.3%&0.8%,-5.6%&12.3%
O=C(CSc1ncnc2ccccc12)NCc1ccc2c(c1)OCO2,7.4%,8.9%
CCOC(=O)C1=C(COCCN)NC(C)=C(C(=O)OC)C1c1ccccc1Cl (stereo not drawn),-1.6%&3.6%&-8.8%&-5.0%&-8.2%,nt
COc1cc(S(=O)(=O)n2c(C)nc3ccccc32)ccc1F,1.1%,-0.7%

Arranged by molecular weight (falling): seven of the compounds above
Structure,Tb PYK inh,LmPK inhibitor
CCCCc1oc2ccccc2c1C(=O)c1cc(I)c(OCCN(CC)CC)c(I)c1,2.0%&0.0%&0.3%,-0.2%
Cc1ccc2c(CC(=O)N3CCN(S(=O)(=O)c4ccc5c(c4)OCCO5)CC3)coc2c1,2.2%,4.6%
O=C(CSc1ncnc2ccccc12)NCc1ccc2c(c1)OCO2,7.4%,8.9%
COc1ccc(/C(N)=N/OC(=O)CSc2ccccc2)cc1,6.1%,-2.7%
CCNc1c2c3c(cccc3n(C)c1=O)C(=O)c1ccccc1-2,-10.8%,-4.2%
O=C(O)Cn1nc(C(F)(F)F)c2c1CCCCC2,5.7%,-1.8%
Nc1c2c(nc3ccccc13)CCCC2,-3.1%&-0.1%&2.2%,-0.7%
